Screening data as filed in PubChem.
Mtb betalactam – beta-lactam sensitization of Mtb H37Rv | M. tuberculosis H37Rv growth with meropenem, percent inhibition; hits of this screen are not shown here | inhibition, % at 25 µM | actives 0.27% (n = 330,000) | AID 434955;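 active = about 74% or more and at least 40 points above the plate without the antibiotic, then above 30% in a dose series; inconclusive = first-round hits that could not be retested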;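 note: growth measured after seven days incubation then overnight dye step; 0% = bacteria only wells and 100% = bacteria with antibiotic; twin plates without the antibiotic show which effects depend on it; some results filed as inactive read as strong as hits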
RecA splice inh – blocks M. tuberculosis RecA intein splicing; AID 2221; cell-free RecA intein splicing, fluorescence; inhibition, %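 (about 9 µM by stock and volumes)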; actives 0.75% (n = 290,000); in the data active = inhibition above about 30%; inconclusive = no clear call, values can overlap the other calls;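 note: 0% = vehicle wells and 100% = reference inhibitor control wells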
Target sequence (P9WHJ3 whole entry, looked up, canonical isoform): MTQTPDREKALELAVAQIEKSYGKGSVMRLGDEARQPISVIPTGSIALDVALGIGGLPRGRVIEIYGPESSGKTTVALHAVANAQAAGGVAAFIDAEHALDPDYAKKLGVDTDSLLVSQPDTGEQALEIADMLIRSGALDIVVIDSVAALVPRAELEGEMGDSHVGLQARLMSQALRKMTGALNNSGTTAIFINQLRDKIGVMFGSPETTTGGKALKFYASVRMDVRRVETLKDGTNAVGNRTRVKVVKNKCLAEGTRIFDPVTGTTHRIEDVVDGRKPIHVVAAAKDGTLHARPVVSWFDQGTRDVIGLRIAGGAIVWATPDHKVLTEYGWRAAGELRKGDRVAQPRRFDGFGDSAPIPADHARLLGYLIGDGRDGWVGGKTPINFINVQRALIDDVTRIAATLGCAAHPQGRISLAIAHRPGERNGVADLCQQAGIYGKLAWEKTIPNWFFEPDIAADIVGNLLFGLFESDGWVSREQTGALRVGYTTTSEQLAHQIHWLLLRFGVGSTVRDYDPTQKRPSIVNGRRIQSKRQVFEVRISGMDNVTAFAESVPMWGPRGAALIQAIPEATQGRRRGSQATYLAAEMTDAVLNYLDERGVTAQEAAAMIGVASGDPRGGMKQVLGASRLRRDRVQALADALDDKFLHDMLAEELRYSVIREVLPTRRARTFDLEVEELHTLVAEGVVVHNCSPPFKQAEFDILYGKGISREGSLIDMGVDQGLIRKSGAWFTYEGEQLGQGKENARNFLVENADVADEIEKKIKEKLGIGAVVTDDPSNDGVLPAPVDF
Arbovirus anti – arbovirus infection inhibition. arbovirus infection cell-based antiviral screen. inhibition, % at 10 µM. actives 0.37% (n = 200,000). AID 1251;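 active = inhibition from about 30%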;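 note: bluetongue infection of BSR cells; cell survival read as ATP light after 72 h; 0% = infected wells without compound and 100% = uninfected wells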
Mtb growth – M. tuberculosis H37Rv growth inhibitors, H37Rv strain (AID 1626); actives 0.95% (n = 220,000); M. tuberculosis H37Rv growth inhibition; higher % means a stronger effect; inhibition, % at 10 µM, or IC50 in µM where a hit was titrated;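 active = confirmed in a dose series; inconclusive = inhibition above 80% but not taken into the dose series; inactive = below 80% or under 30% at every dose of the series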;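 note: bacteria incubated seven days before Alamar blue readout; 0% = bacteria only wells and 100% = bacteria with antibiotic wells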
YopH PTP inh – inhibitors of Yersinia enterocolitica YopH tyrosine phosphatase | fluorescence Ex485/Em525 | inhibition, %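 (about 10 µM by stock and volumes)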 | actives 0.16% (n = 140,000);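 active = inhibition of 50% or more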;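 note: controls were vehicle for no effect and minimum signal wells for full effect; inactives centre near -20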
Arbovirus anti repeat – further read-out of Arbovirus anti, marked with its call; inhibition, %; measured here: 10K subset replicate screen; many hits read low in the repeat;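 first of two repeat runs on a subset; 0% = infected and 100% = uninfected wells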
Active calls of the source: *; u = inconclusive; x = no result given.

SMILES | Mtb betalactam | RecA splice inh | Arbovirus anti | Mtb growth | YopH PTP inh | others
Cn1c(Cc2ccccc2)nnc1SCC(=O)NC1CCCCC1 | -13 | -2.3 | 3 | -7% | 11 | Arbovirus anti repeat=2
Cn1c(=O)c2c(ncn2CC(=O)OCC(=O)Nc2ccccc2Cl)n(C)c1=O | 0 | 1.5 | -8 | -3% | -36
CCC(CO)NCc1ccc(OCC(O)c2ccccc2)c(OC)c1 (stereo not given) | 7 | -0.9 | x | x | x
FC(F)(F)c1cc(CCN2CCNC[C@@H]2Cc2ccccc2)cc(C(F)(F)F)c1 | 99 | 0.8 | x | 66% | x
CCOC(=O)c1csc(NC(C)=O)n1 | 3 | 1.0 | -4 | x | x
CCc1nnc(SCC(=O)NC2CC2)n1CC | 4 | 0.9 | x | x | x
Cc1ccc(-c2noc(CN(C)C(=O)c3ccoc3C)n2)cc1 | 8 | -2.1 | x | x | x
CCN(CC)C(=O)CN(c1cc(Cl)ccc1OC)S(=O)(=O)c1ccc(C)c([N+](=O)[O-])c1 | -8 | -1.1 | -6 | 5% | -46
COc1ccc(N=Cc2c(O)c3ccccc3n2C(C)=O)cc1 | 68 | -7.3 | x | 59% | x
O=C1CC(c2ccccc2)CC(O)=C1C=Nc1ccc(Cl)cc1 (stereo not given) | 6 | -0.2 | -3 | -2% | -8
CCN(CC)c1ccc(/C=C(/C#N)c2nc3ccc(C)cc3[nH]2)c(OC(C)C)c1 | 15 | -31 | -12 | 16% | -52
Cc1nn(Cc2cccc(C(=O)NCC(C)C)c2)c(C)c1Br | -2 | 1.7 | -2 | -18% | -8
COc1ccc(/C=N/Nc2cc(C)nc(N3CCOCC3)n2)c(OC)c1 | -6 | -1.0 | x | -1% | x
Cc1cccc(C)c1NC(=O)Cn1c(=O)n(CCCC(=O)NCc2ccco2)c(=O)c2sccc21 | -5 | 0.9 | 6 | -4% | -31
COc1ccc2[nH]c3c(Cl)ncnc3c2c1 | 4 | 76* | 7 | 5% | 10
Fc1ccc(C2CCCN2Cc2nc(Cc3ccccc3F)no2)cc1 (stereo not given) | -8 | -0.4 | -7 | 4% | x
CCSC1=C(C#N)C(c2ccc(OC)c(OC)c2)CC(=O)N1 (stereo not given) | 6 | 4.8 | 3 | -16% | -33
COc1cc(-c2nnn(CC(=O)N3CCOCC3)n2)cc(OC)c1OC | -1 | -4.3 | 1 | -7% | -4
CC1CCCN(c2nc3c(c(=O)[nH]c(=O)n3C)n2CCSc2ncccn2)C1 (stereo not given) | x | x | 4 | 3% | x | Arbovirus anti repeat=3
CCCCOC(=O)CSc1nc2ccccc2o1 | -4 | -0.9 | x | -2% | x
O=C(CN(Cc1ccccc1Cl)C(=O)c1ccc(CN2CCOCC2)o1)NCC1CCCO1 (stereo not given) | 5 | -3.8 | 6 | -7% | -10
CC(Oc1cccc(Cl)c1)C(=O)Nc1ccccc1N1CCCCC1 (stereo not given) | 11 | 8.3 | x | x | x
Cc1cc(C)cc(-n2ncc3c2CCCC3NC(=O)CCN2CCCC2=O)c1 (stereo not given) | -2 | -0.1 | x | x | x
Cc1c[nH]c(=O)c([N+](=O)[O-])c1 | 3 | 3.0 | x | -2% | x
CCOC(=O)C/C(C)=N/NC(=O)COc1ccccc1C | -7 | 62* | 3 | 9% | -24
OC(COc1cccc2ccccc12)CN1CCN(c2ccc(Cl)cc2)CC1 (stereo not given) | 91 | 16 | x | 5% | x
Cc1onc(-c2ccccc2)c1C(=O)N/N=C/C(Br)=C/c1ccccc1 | 7 | 2.9 | 7 | u | -16
COc1ccc(-c2nc(NC(=O)c3[nH]c(C)c(C(C)=O)c3C)sc2C)cc1 | 92 | 2.8 | -24 | u | x
CCn1c(O)c(C=Nc2ccc(S(N)(=O)=O)cc2)c(=O)n(CC)c1=S | 17 | -0.8 | 16 | 5% | -12
N#C/C(=C\c1ccc(N2CCCCC2)c([N+](=O)[O-])c1)c1nn(-c2ccccc2)c(N)c1C#N | 67 | 9.6 | 1 | 17% | -15

A stretch from the list above, for reference:
SMILES | Mtb betalactam | RecA splice inh | Arbovirus anti | Mtb growth | YopH PTP inh | others
Cn1c(Cc2ccccc2)nnc1SCC(=O)NC1CCCCC1 | -13 | -2.3 | 3 | -7% | 11 | Arbovirus anti repeat=2
Cn1c(=O)c2c(ncn2CC(=O)OCC(=O)Nc2ccccc2Cl)n(C)c1=O | 0 | 1.5 | -8 | -3% | -36
CCC(CO)NCc1ccc(OCC(O)c2ccccc2)c(OC)c1 (stereo not given) | 7 | -0.9 | x | x | x
FC(F)(F)c1cc(CCN2CCNC[C@@H]2Cc2ccccc2)cc(C(F)(F)F)c1 | 99 | 0.8 | x | 66% | x
CCOC(=O)c1csc(NC(C)=O)n1 | 3 | 1.0 | -4 | x | x
CCc1nnc(SCC(=O)NC2CC2)n1CC | 4 | 0.9 | x | x | x

Later entries
SMILES | Mtb betalactam | RecA splice inh | Arbovirus anti | Mtb growth | YopH PTP inh | others
COc1ccc(-c2cnnn2-c2ccc(NC(=O)c3ccco3)cc2)cc1OC | 43 | -1.1 | 2 | 5% | -54
O=C(NCC1CCN(Cc2ccccc2Cl)CC1)Nc1cccc(Cl)c1 | -12 | 0.8 | -15 | 11% | x
CCCC1=C(C(=O)OCC)C(c2ccc(OC)c(CSc3ccccn3)c2)C(C#N)=C(N)O1 (stereo not given) | -3 | 5.7 | -1 | 3% | -11
COCCNC(=O)/C(C#N)=C/c1ccc(-c2ccc(S(=O)(=O)N3CCOCC3)cc2)o1 | 4 | -9.4 | 4 | 3% | -6
CC(SCc1ccccc1)C(=O)N/N=C/c1ccc(OCC(=O)NCc2ccco2)cc1 (stereo not given) | 9 | 6.6 | 12 | 4% | -20
O=C(NCCc1ccccc1)c1ccc2c(c1)OCCCO2 | -2 | -0.4 | x | x | x
CCCCNC(=O)c1onc(CSc2ccc(C)c(C)c2)c1C(=O)O | -3 | 7.6 | -3 | -8% | -32
CCOC(=O)CC(NC(=O)c1cccc2c1C(=O)N(Cc1cccnc1)C2)c1ccc(OCC)c(OC)c1 (stereo not given) | 4 | -2.0 | -7 | 0% | x
Cc1c(C(=O)NCc2ccc3c(c2)OCO3)oc2ccccc12 | 0 | 2.3 | -2 | -10% | -63 | Arbovirus anti repeat=-3
CC(C)(C)c1ccc2c(c1)OC(C(=O)N/N=C\c1ccc(-c3cccc(C(=O)O)c3)o1)CO2 (stereo not given) | 1 | 0.4 | x | -1% | x
CCc1ccc(-c2c(C)sc(NC(C)=O)c2C(N)=O)cc1 | 24 | -1.1 | -5 | -9% | 0
CCCN(CCC)C(=O)Cn1ccc(=N)c2ccccc21 | -4 | -3.5 | -5 | 1% | -49
Cc1cc(C)c(N(C(=O)CN2C(=O)c3ccccc3S2(=O)=O)C(C(=O)NCC2CCCO2)c2ccc(F)cc2)c(C)c1 (stereo not given) | -3 | 4.3 | 8 | 5% | -43
Cc1n[nH]c(C)c1CCNC(=O)C1CCC(=O)N(Cc2ccccc2F)C1 (stereo not given) | -10 | 7.8 | x | x | x
Cc1ccc(-c2nc(CS(=O)(=O)CC(=O)N3CCOCC3)c(C)o2)cc1 | 1 | -11 | x | x | x
C=CCn1c(-c2sc(-c3ccccc3)nc2C)n[nH]c1=S | -6 | -2.3 | 24 | -8% | x
COc1cc(C(=O)Nc2cc(Cl)ccc2C)c(-n2cnnn2)cc1OC | 0 | -0.7 | 3 | 3% | -8
COc1ccc(C2C=C(c3ccc(C)c(C)c3)Nc3ncnn32)c(OC)c1OC (stereo not given) | -3 | -251 | 10 | -6% | x | Arbovirus anti repeat=6
O=C1CC(N2CCc3ccccc32)C(=O)N1c1ccc(F)cc1 (stereo not given) | -3 | -5.6 | -12 | -3% | x
COc1ccc(S(=O)(=O)N(CC(=O)N2CCN(c3ccccc3)CC2)c2ccccc2)cc1 | 9 | -0.6 | -1 | -1% | -5

Next part (2 carried over from the part before).
SMILES | Mtb betalactam | RecA splice inh | Arbovirus anti | Mtb growth | YopH PTP inh | others
O=C1CC(N2CCc3ccccc32)C(=O)N1c1ccc(F)cc1 (stereo not given) | -3 | -5.6 | -12 | -3% | x
COc1ccc(S(=O)(=O)N(CC(=O)N2CCN(c3ccccc3)CC2)c2ccccc2)cc1 | 9 | -0.6 | -1 | -1% | -5
COc1ccc(/C=C/CN2CCN(Cc3ccc(F)cc3)C(CCO)C2)cc1 (stereo not given) | -6 | 3.5 | -13 | -1% | x
CC(=O)c1cccc(OCc2cc(C(=O)N3CC4C[C@@H]5CC3C[C@H](C4)C5)no2)c1 | 5 | 5.7 | x | x | x
Cc1cccc(N2CCN(C(=O)c3ccccc3OCc3c(C)noc3C)CC2)c1C | 0 | 4.6 | x | x | x
Cc1ccn2cc(-c3ccc4c(c3)NC(=O)CO4)nc2c1 | 13 | 1.9 | 4 | 5% | x
O=C(Nc1ccccc1)Nc1cc(S(=O)(=O)N2CCOCC2)ccc1N1CCCC1 | -4 | 1.8 | -4 | -3% | -17
Cc1sc(NC(=O)c2ccco2)c(CN2CCN(c3ccccn3)CC2)c1C | 16 | -1.7 | -21 | 1% | -29
CC(C)CNC(=S)Nc1ccc(F)cc1 | -4 | 6.5 | -2 | 2% | -13
COc1ccc(-c2cc(-c3ccco3)[nH]c(=O)c2C#N)cc1 | -4 | -13 | x | 3% | x
COc1ccc(C2C(C(=O)c3cccs3)=C(O)C(=O)N2c2cccc(C)n2)cc1 (stereo not given) | -17 | 0.7 | x | -21% | x
COc1ccc(Nc2cc(C(=O)NCc3ccccn3)c3ccccc3n2)c(OC)c1 | 8 | 0.5 | 17 | 9% | x
Cc1ccc(C(=O)NC(=S)NCc2ccco2)cc1 | -4 | 8.1 | 8 | 2% | x
CN1CCC(N2CC3CC(C2)c2cccc(=O)n2C3)CC1 (stereo not given) | -10 | -1.9 | 8 | -2% | -24
Cc1cc(OCCN2CCCC2)cc(C(C)C)c1 | -7 | -1.0 | 4 | -3% | -20
O=C(Cn1cnc([N+](=O)[O-])n1)c1ccccc1 | 4 | 1.5 | x | x | x
Cc1ccc(C2CC(=O)C=C(NCc3ccccc3)C2)cc1 (stereo not given) | -4 | x | x | -5% | x
CCNC(=O)COC(=O)C1C(C(=O)OCC)=C(C)NC(C)=C1C(=O)OCC | u | -6.2 | 1 | 7% | -15
CC(/C=C1\SC(=S)N(NC(=O)c2ccc(C)cc2)C1=O)=C\c1ccccc1 | 7 | 0.7 | -3 | -1% | -43
Cc1cc(OC(=O)c2ccccc2Cl)cc(=O)n1C | -1 | 2.5 | 7 | 1% | -25
COc1ccc(NC(=O)c2c(Cl)nc3ccccn23)cc1 | 10 | -0.1 | -1 | 0% | x
Cc1ccc(Sc2cc(NCCCO)c([N+](=O)[O-])c3nonc23)cc1 | -8 | 23 | x | x | x
CCCC(=O)N1CCc2[nH]c3ccccc3c2C1 | 3 | -23 | -7 | -5% | -10
CC(OC(=O)c1cccs1)C(=O)NC1CC1 (stereo not given) | 0 | 0.2 | x | x | x
O=C1CCC(C(=O)N2CCOCC2)CN1Cc1ccc(Cl)cc1 (stereo not given) | -3 | -2.3 | x | x | x
CC(C)(C)c1nnc(NC(=O)COc2ccc3c(c2)OCO3)s1 | -8 | -2.4 | x | x | x
Cc1ccc2c(c1)c(C)cc(=O)n2CCC(=O)O | 4 | 0.5 | 7 | -2% | -44
CCCN(CCC)CCCNC(=O)C1c2cc(OC)c(OC)cc2C(=O)N(C)C1c1cccs1 (stereo not given) | 2 | 0.1 | 4 | -7% | -18
O=C(N[C@@H](Cc1ccccc1)C(=O)O)c1ccncc1 | 3 | -0.9 | 2 | 2% | x
O=C(Nc1ccc(Cl)cc1)c1cccc(N2C(=O)C3C4CCC(C4)C3C2=O)c1 (stereo not given) | 0 | 5.8 | -1 | -1% | -26
COc1cc(NC(=O)c2ccc(Cl)cc2)c2ncccc2c1 | 2 | -0.9 | x | x | x
CC1CN(S(=O)(=O)c2ccc(F)cc2)CN1C(=O)N1CCOCC1 (stereo not given) | -2 | -1.7 | x | x | x
O=Cc1ccc(OCc2nnc(-c3ccccc3Br)o2)cc1 | 7 | -0.8 | x | x | x
CCn1c(SCC(=O)Nc2nccs2)nnc1C1CC1 | -9 | -0.2 | x | x | x
Cc1ccc(O)c(C(=O)CC(=O)c2ccc(C(C)(C)C)cc2)c1 | 100 | 3.1 | x | x | x
O=C(C1=C[C@H](c2csc3ccccc23)C[C@H](OCCCCO)O1)N1CCN(Cc2ccccc2)CC1 | 3 | 7.6 | -7 | 7% | x
c1ccc(CSc2nc3ncncc3[nH]2)cc1 | 0 | -0.4 | x | -8% | x
CCOc1ccc(-c2nc(C#N)c(N3CCCCCC3)o2)cc1 | 4 | 1.2 | -2 | 17% | -9
Cn1ccnc1SCC(=O)Nc1nc2ccccc2s1 | -10 | 2.6 | 3 | 4% | x

An excerpt. The share of hits here may be higher or lower than overall.
